# Source: PubChem
# Choline anaer gr = inhibitors of anaerobic choline-dependent gram-negative bacterial growth | Gram-negative bacterium anaerobic choline minimal medium, absorbance growth; active compounds read low; many inactives read as strong as hits in the columns shown | calls only | 55,000 tested, 0.2% active | AID 1963822;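 active = growth z-score on choline under -2 at 7 or 20 h with little or no fall on glycerol, limits in tiers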;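 also: stock transfer was 300 nL into about 50 µL; the organism is E. coli; final concentration not given here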
# Choline anaer gr early = second read-out of Choline anaer gr, no call of its own (marks repeat the call); z-score; measured here: choline growth z-score, timepoint 1;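 score of optical density at 7 h as mean of two plates; lower means less growth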
# * hit, by the source's call; i = inactive; & = joins results of further samples. These rows are one share of the data (hit frequency here may not be typical).
SMILES,Choline anaer gr,Choline anaer gr early
COc1ccc2cc3c(nc2c1)N(S(=O)(=O)c1ccc(F)cc1)CC3,i,0.16
Cc1ccc2c(Sc3ccc(Cl)cc3)c(C(=O)NCc3ccccn3)[nH]c2c1,i,1.99
Cc1oc(-c2ccccc2)nc1Cn1c(=O)c2cccnc2n(-c2ccccc2)c1=O,i,-0.47
Cc1cccc(N2CCN(c3ncc(C(=O)O)cc3NS(=O)(=O)c3ccccc3)CC2C)c1 (stereo unspecified),i,-1.74
O=C(Nc1cccc(OCc2cc(=O)n3ccccc3n2)c1)Nc1ccccc1Cl,i,-0.41
Cc1cc(C)cc(NC(=O)CCn2c(C(F)(F)F)nc3cc(S(=O)(=O)N(C)C)ccc32)c1,i,0.5
O=C1CC(c2cc(F)cc(F)c2)Cc2nc(NCC3CCCO3)ncc21 (stereo unspecified),i,-1.03
CCOc1ccccc1NC(=O)Cn1cnc2onc(-c3ccc(Cl)cc3)c2c1=O,i,0.46
Cc1cc(C)n(C(=O)c2sccc2S(=O)(=O)N(C)c2ccc(Cl)cc2)n1,i,-1.37
Cn1nc(COCc2ccccc2F)c2c1CCN(C(=O)c1cccc(F)c1)C2,i,-1.47
NCC(O)c1ccc(O)c(O)c1 (stereo unspecified),i,0.27
CC(C)(C)C(=O)Nc1ccccc1-c1nc(-c2ccccc2)no1,i,2.64
O=C(NCc1ccccc1)c1ccc(Nc2ncc(-c3cccc(F)c3)cn2)cc1,i,-0.01
Cc1c(Cl)cccc1Nc1c(C(=O)N2CCOCC2)cnc2ccccc12,i,-0.27
COc1cccc(-c2nn(Cc3nc(-c4ccc(Cl)cc4)oc3C)c(=O)c3noc(C)c23)c1,i,0.6
CCOC(=O)c1ccc(OC(=O)CCCCCN=C(N)N)cc1,i,0.76&0.38&0.25
COc1c(C)cnc(CN2CCn3c2nc(C)c(C)c3=O)c1C,i,1.03
CCc1c(C)nc2ncnn2c1N1CCN(c2ccccc2)CC1,i,-0.27
O=C(NCCC1=CCCCC1)C1CCCN(c2ccnc(-c3ccccc3)n2)C1 (stereo unspecified),i,-0.96
O=C1CC(c2nc(-c3ccc(N4CCCC4)cc3)no2)CN1c1ccccc1 (stereo unspecified),i,-1
O=c1c2[nH]c3ccc(F)cc3c2ncn1Cc1ccc(F)cc1,i,-0.26
C=CCn1c(SCC(=O)NC2CCCCC2C)nnc1-c1cc2ccccc2o1 (stereo unspecified),i,-1.13
CC(C)(CO)NCc1ccc(-c2cccc(C(F)(F)F)c2)o1,i,0.01
COc1ccc(OC)c(NC(=O)Cn2ncn3nc4c(c3c2=O)CCCC4)c1,i,0.67
CCc1nc2c(C)nc(Nc3ccccc3)nc2n1-c1ccccc1,i,-1.21
Cc1ccc(N2CC(C(=O)Nc3cc(-n4cnnn4)ccc3Cl)CC2=O)cc1 (stereo unspecified),i,0.47
CCC(SC1=Nc2ccccc2C2=NC(C)C(=O)N12)C(=O)Nc1ccccc1F (stereo unspecified),i,-1.28
COc1ccc(C(=O)NCC2(c3ccc(OC)c(OC)c3)CCCC2)cc1OC,i,0.15
COc1ccc(OC)c(C(Nc2nc(C)cc(C)n2)c2cc(C)sc2NC(=O)c2ccccc2)c1 (stereo unspecified),i,-0.24
Cc1cc(C)c2c(n1)SCCN2C(=O)NCC(=O)NCc1ccccn1,i,0.03

# Complete entries from above. Values in the order: Choline anaer gr	Choline anaer gr early
# `CC(C)(CO)NCc1ccc(-c2cccc(C(F)(F)F)c2)o1` reads i	0.01
# `COc1ccc(OC)c(NC(=O)Cn2ncn3nc4c(c3c2=O)CCCC4)c1` reads i	0.67
# `CCc1nc2c(C)nc(Nc3ccccc3)nc2n1-c1ccccc1` reads i	-1.21

# (cont.)
SMILES,Choline anaer gr,Choline anaer gr early
CCCCC/C=C\C\C=C/C=C/C=C/[C@@H](SCC(NC(C)=O)C(=O)O)[C@@H](O)CCCC(=O)O (stereo partly specified),i,0.25
CCCCN1CCn2c(nc3cc(NC(=O)C(C)(C)C)ccc32)C1,i,-0.2
Cc1ccc(-c2noc(CSc3nc4c(oc5ccccc54)c(=O)n3CC3CCCO3)n2)cc1 (stereo unspecified),i,1.29
O=C(Nc1cnc2ccc(Cl)cn2c1=O)c1ccccc1,i,0.96
COc1ccc(Nc2ccc(-c3nc(-c4ccccc4)no3)nn2)cc1,i,2.25
O=S(=O)(c1ccc(-c2cnc(C3CC3)o2)s1)N1CCN(c2ccccc2F)CC1,i,0.62
CCN(C(=O)CSc1nc2ccccc2n1Cc1ccncc1)c1ccccc1,i,-1.47
CCc1cc(C2CCCN2C(=O)Nc2ccccc2Br)on1 (stereo unspecified),i,-0.04
Cc1cc2nc(-c3cccnc3)cc(C(F)(F)F)n2n1,i,-0.86
O=C(CN1C(=O)c2ccccc2S1(=O)=O)Nc1ccccc1F,i,0.32
CCC(=O)N1CCc2cc(CNS(=O)(=O)N(C)C)ccc21,i,-1.13
CCC(=O)n1nc(C)c(S(=O)(=O)N2CCC(C)CC2)c1C,i,0.66
CCOC(=O)c1noc2ncnc(NCc3ccccc3OC)c12,i,-1.02
O=S(=O)(c1cc(F)ccc1F)N1CCN(c2cc(-c3cccc(F)c3)ncn2)CC1,i,0.07
O=C(Nc1ccc(Br)cc1)c1nc2nc(-c3ccc(F)cc3)cc(C(F)(F)F)n2n1,i,0.73
O=C(Nc1cccc(Cl)c1)C1Nc2cc(F)ccc2S(=O)(=O)N1 (stereo unspecified),i,0.82
CC(=O)Nc1ccc(-c2noc(C3CCN(C(=O)c4cccc(NC(C)=O)c4C)CC3)n2)cc1,i,-0.2
C=Cc1ccc(COC(=O)c2nnn(-c3cccc(F)c3)c2C)cc1,i,0.42
CC(C)(C)c1ccc(-c2nc3nc(CN4CCOCC4)cc(=O)n3[nH]2)cc1,i,0.13
CCn1cc(S(=O)(=O)N2CCCn3nc(-c4cccc(OC)c4)cc3C2)cn1,i,-0.14
N#CC(C#N)=C(N)/C(C#N)=C/c1ccc(O)cc1,i,0.2
CCOC(=O)c1c(S(=O)(=O)N2CCC(C(=O)NCCc3nc4ccccc4[nH]3)CC2)c(C)n(C)c1C,i,0.05
COc1ccc(C(CNC(=O)c2cc(-c3ccc4c(c3)OCCO4)on2)N2CCCC2)cc1 (stereo unspecified),i,0.01
CC(C)CNC(=O)c1cnc2sc3c(n2c1=O)CCCC3,i,0.51
Cc1nc(N2CCC(C(=O)N3CCOCC3)CC2)c2c(C)c(C)oc2n1,i,-0.48
COc1cccc(OCC(=O)Nc2cc(C)nn2-c2ncnc3c2cnn3-c2ccc(Cl)cc2)c1,i,-0.53
COc1ccc2c(c1)C=C(C(=O)NCCc1ccc(S(N)(=O)=O)cc1)CO2,i,1.3
Cc1ccc(Sc2ccc(N3CCCC(C(=O)NCc4ccccc4)C3)nn2)cc1 (stereo unspecified),i,1.33
O=S(=O)(c1ccc2c(c1)-c1oncc1CO2)N1CCN(c2ccccc2)CC1,i,-1.49
Cc1ccc(-c2nnc3c(=O)[nH]c4ccccc4n23)cc1,i,-0.3
Cn1c(=O)oc2cc(NC(=O)C(C)(C)C)ccc21,i,-0.83
O=C(Nc1cnc(N2CCN(c3ccc(F)cc3)CC2)c(C(=O)O)c1)c1ccc(Cl)cc1,i,1.23
CCn1c(CCc2cccc(NS(=O)(=O)c3cnc[nH]3)c2)nc2ccccc21,i,-0.44
CCOc1ccc(S(=O)(=O)Nc2ccc(C)cc2)cc1-c1nc(C)no1,i,-0.11
NC(=O)C1CCN(C(=O)c2ccc(CN3C(=O)CCn4nc(-c5ccc(Cl)cc5)cc43)cc2)CC1,i,0.89
NS(=O)(=O)c1cc2c(cc1Cl)NC=NS2(=O)=O,i,-0.19&0.75
CC1CCC(NC(=O)C2(C)Cc3ccccc3C(=O)N2CCc2ccccc2)CC1 (stereo unspecified),i,-0.47
O=c1c(NCc2ccc(F)cc2)nccn1-c1ccc2c(c1)OCO2,i,-2.24
COc1cc(C2NCCc3c2[nH]c2ccccc32)ccc1OC(C)C (stereo unspecified),i,-0.11
CCN1CCCC1CNS(=O)(=O)c1ccc2c(c1)C(C)(C)CN2C(=O)C(C)C (stereo unspecified),i,1.43
Cn1c(SCC(=O)Nc2ccccc2F)nc2c(sc(=S)n2-c2ccccc2)c1=O,i,1.42
O=C(Oc1ccc(Cl)cc1)c1cc(-c2ccc3c(c2)OCCO3)on1,i,0.12
c1ccc(CNc2nc(-c3ccccc3)no2)cc1,i,-0.98
CC1CN(CC(=O)N2CCN(c3ncccn3)CC2)c2ccccc2S1 (stereo unspecified),i,-0.04
Cc1cc(NC(=O)c2ccc(C)c(C)c2)n(-c2ncnc3c2cnn3-c2ccccc2)n1,i,0.45
Cc1ccc2occ(CC(=O)Nc3ccc(S(N)(=O)=O)cc3)c2c1,i,-0.14
CCCSc1nc2c(c(=O)[nH]1)C(c1cccc(OC)c1)C(C(=O)OC)=C(C)N2 (stereo unspecified),i,-0.2
CC1CCCN(S(=O)(=O)c2ccc(-c3nc(C#N)c(NCCN4CCOCC4)o3)cc2)C1 (stereo unspecified),i,0.24
Cc1ccc(S(=O)(=O)N2CCN(Cc3nc4cc(C(=O)N5CCCCC5)ccc4o3)CC2)cc1Cl,i,0.06
CCC(C)NC(=O)c1ccc(-c2ccc(F)cc2)nc1 (stereo unspecified),i,-1.36
# Next section
SMILES,Choline anaer gr,Choline anaer gr early
CC(=O)Nc1ccc(C)cc1-c1nc2ccccc2n(C(C)C(=O)Nc2c(C)cc(C)cc2C)c1=O (stereo unspecified),i,-0.62
O=C(NC1=C(C(=O)c2ccccc2)N(Cc2ccccc2)S(=O)(=O)c2ccccc21)c1ccc(F)cc1,i,0.55
CCC(=O)N1CCCC1c1nc2ccccc2n1CCOc1ccc(OC)cc1 (stereo unspecified),i,0.79
CC(C)NC(=O)N1CCCC(c2cccc(C(=O)NCCN3CCOCC3)c2)C1 (stereo unspecified),i,-0.01
CCCN(CCC)CCCNC(=O)C1CCN(c2nc3cccnc3s2)CC1,i,0.36
c1ccc(-c2nnc3sc(-c4c[nH]c5ccccc45)nn23)nc1,i,1.15
CC(C)c1onc(-c2c(Cl)cccc2Cl)c1COc1ccc(C=Cc2cccc(C(=O)O)c2)c(Cl)c1,i,-0.04
O=C(Nc1ccc2c(c1)OCCO2)C1CCCN(C(=O)c2cc(-c3ccccn3)n[nH]2)C1 (stereo unspecified),i,-0.67
COc1ccc(Cl)cc1NC(=O)c1cc(S(=O)(=O)N2CCC(C)CC2)cn1C,i,0.53
Cc1cccc(OCc2nc(C)c(C(=O)NCC3CCCO3)s2)c1 (stereo unspecified),i,1.84
CCSc1nc2ccc(NS(=O)(=O)c3ccccc3F)cc2s1,i,-0.28
O=C(Cn1cnc2nc3c(cc2c1=O)CCCC3)NCCC1=CCCCC1,i,-0.01
CCOC(=O)c1cc(CC)sc1NC(=O)c1sc(C)nc1C,i,0.72
CCn1nc(C)c2c1c(=O)n(Cc1ccccc1)c(=O)n2Cc1ccccc1C,i,-1.41
c1cc2nnc(C3CCC3)n2nc1N1CCOCC1,i,-0.33
Cc1ccc(Cn2cccc2CNS(=O)(=O)c2cccc3nsnc23)cc1,i,1.47
CN(CCc1noc(-c2ccc(C(=O)N3CCOCC3)cc2)n1)C(=O)c1ccc(Br)cc1,i,-0.04
O=S(=O)(c1cn(Cc2noc(COc3ccccc3)n2)cn1)N1CCOCC1,i,-0.03
O=C(OCC1CCCO1)c1ccc2c(c1)N(Cc1cccc(Cl)c1)C(=O)c1ccccc1S2(=O)=O (stereo unspecified),i,1.13
COc1cc(CNCCSc2nnnn2C)ccc1OCc1cccc(C)c1,i,0.68
CC(C)Cn1c(=O)c2sccc2n2c(SCc3ccccc3F)nnc12,i,0.79
O=C(Nc1cccnc1)c1ccccc1-c1nc(-c2ccccc2)no1,i,0.51
CC(C(=O)NCc1cccs1)N1C(=O)C2CCCCN2C(=O)c2ccccc21 (stereo unspecified),i,-0.42
O=c1c2nnn(Cc3ccc(Cl)cc3)c2ncn1Cc1nc(-c2ccc3c(c2)OCO3)no1,i,0.1
CCn1cc(-c2nc(-c3ccc(F)cc3)no2)c(=O)c2cc(F)c(N3CCOCC3)cc21,i,-0.93
COc1ccc(-c2noc(N3CCC(C(=O)Nc4cccc(Cl)c4)CC3)n2)cc1,i,0.3
COc1ccc(/C=C/c2ccc(OC)cc2)cc1,i,-2.39
O=C(Nc1cccc(Br)c1)C1CC(=O)N(CCc2c[nH]c3ccc(F)cc23)C1 (stereo unspecified),i,-1.65
O=c1[nH]c(SCc2cccc(Cl)c2)nc2c(-c3ccccc3)c[nH]c12,i,0.35
CCOC(=O)c1c(NC(=O)c2snnc2C)sc(C)c1C,i,-0.65
CC1CC(C)CN(C(=O)c2cc(-c3ccccc3)n[nH]2)C1 (stereo unspecified),i,0.52
COc1ccc(C2C3=C(CC(c4ccccc4)CC3=O)Nc3ncnn32)cc1 (stereo unspecified),i,0.53

# Among those listed so far, these have an NH in an aromatic ring:
SMILES,Choline anaer gr,Choline anaer gr early
Cc1ccc2c(Sc3ccc(Cl)cc3)c(C(=O)NCc3ccccn3)[nH]c2c1,i,1.99
O=c1c2[nH]c3ccc(F)cc3c2ncn1Cc1ccc(F)cc1,i,-0.26
CC(C)(C)c1ccc(-c2nc3nc(CN4CCOCC4)cc(=O)n3[nH]2)cc1,i,0.13
CCOC(=O)c1c(S(=O)(=O)N2CCC(C(=O)NCCc3nc4ccccc4[nH]3)CC2)c(C)n(C)c1C,i,0.05
Cc1ccc(-c2nnc3c(=O)[nH]c4ccccc4n23)cc1,i,-0.3
CCn1c(CCc2cccc(NS(=O)(=O)c3cnc[nH]3)c2)nc2ccccc21,i,-0.44
COc1cc(C2NCCc3c2[nH]c2ccccc32)ccc1OC(C)C (stereo unspecified),i,-0.11
CCCSc1nc2c(c(=O)[nH]1)C(c1cccc(OC)c1)C(C(=O)OC)=C(C)N2 (stereo unspecified),i,-0.2
c1ccc(-c2nnc3sc(-c4c[nH]c5ccccc45)nn23)nc1,i,1.15
O=C(Nc1ccc2c(c1)OCCO2)C1CCCN(C(=O)c2cc(-c3ccccn3)n[nH]2)C1 (stereo unspecified),i,-0.67
O=C(Nc1cccc(Br)c1)C1CC(=O)N(CCc2c[nH]c3ccc(F)cc23)C1 (stereo unspecified),i,-1.65
O=c1[nH]c(SCc2cccc(Cl)c2)nc2c(-c3ccccc3)c[nH]c12,i,0.35
CC1CC(C)CN(C(=O)c2cc(-c3ccccc3)n[nH]2)C1 (stereo unspecified),i,0.52
